# gsp agonist = activates gsp, the McCune-Albright syndrome mutation | 340,000 compounds, 0.13% hits | gsp mutant cells, cAMP HTRF, 30 min; control for the full effect not named in the record | Potency, µM (series often up to 76.9 µM), for inactives: at the top dose activation (cAMP increase), usual class: activators | AID 624287; active = well fitted activation curve with a large enough effect; inconclusive = small, poorly fitted or top-dose-only effect, or another doubt; inactive = no such curve, though single readings can be large or run the other way; cell line not stated here;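 also: phosphodiesterase inhibitor Ro 20-1724 added with compounds to block cAMP breakdown; potency is read from the fitted curve at half-maximal effect; nearly all actives have a fitted effect of over 60% in size; about a fifth of the inactives were tested at one dose only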
#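 Cells stably selected in G418 were plated at 2000/well, grown 16-24 hr, then given compounds in DMSO with the PDE inhibitor […] (300 uM solution added) for 30 min at 37C; cAMP was read by HTRF.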
# D2 agonist = agonists of human D2 dopamine receptor (beta-arrestin); P14416; DiscoveRx PathHunter D2 beta-arrestin, luminescence, 90 min; 100% = 57 uM dopamine signal; activation, % (test concentration not listed); 360,000 compounds, 0.084% hits; AID 624465; in the data active = activation above about 40%; inconclusive = about 15% to 40%; inactive = below about 15%; also: compound concentration not given in the record; the text of the record calls up to 30% inactive
# Target sequence (P14416 whole entry, looked up): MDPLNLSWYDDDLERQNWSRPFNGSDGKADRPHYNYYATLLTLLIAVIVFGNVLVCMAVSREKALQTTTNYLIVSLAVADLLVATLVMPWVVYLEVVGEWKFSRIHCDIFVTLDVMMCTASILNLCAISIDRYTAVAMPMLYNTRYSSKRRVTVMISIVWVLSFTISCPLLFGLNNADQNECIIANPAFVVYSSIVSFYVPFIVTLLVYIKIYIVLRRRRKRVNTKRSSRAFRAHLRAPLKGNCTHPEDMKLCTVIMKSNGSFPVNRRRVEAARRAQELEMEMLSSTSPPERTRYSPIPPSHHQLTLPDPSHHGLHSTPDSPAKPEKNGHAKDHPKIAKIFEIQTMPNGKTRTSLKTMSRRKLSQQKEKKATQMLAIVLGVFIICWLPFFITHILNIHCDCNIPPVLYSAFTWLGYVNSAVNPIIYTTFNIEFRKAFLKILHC
#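 Agonist mode: compounds alone added to overnight-plated D2 PathHunter cells for 90 min at 37 C, with 57 uM final dopamine (EC100) defining full response. Beta-arrestin recruitment detected by chemiluminescent reagent, read after 1 h at ambient temperature.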
# ClpP mod = qHTS Assay for Activators of ClpP; purified B. subtilis ClpP, FRET peptide cleavage, 20 min; Potency, µM (top dose mostly 57.5 µM), for the others: at the top dose activity change, negative = active; 340,000 compounds, 1.9% hits; AID 651965, 2013; active = well fitted falling curve with a large enough effect; inconclusive = small, poorly fitted or top-dose-only effect; inactive = no such curve, though single readings can be large or run the other way; also: potency is read from the fitted curve at half-maximal effect; the source files actives as falling curves though it sought activators and does not explain the sign; nearly all actives have a fitted effect of over 65% in size; many hits overshoot -100%
# Target sequence (P80244 whole entry, looked up): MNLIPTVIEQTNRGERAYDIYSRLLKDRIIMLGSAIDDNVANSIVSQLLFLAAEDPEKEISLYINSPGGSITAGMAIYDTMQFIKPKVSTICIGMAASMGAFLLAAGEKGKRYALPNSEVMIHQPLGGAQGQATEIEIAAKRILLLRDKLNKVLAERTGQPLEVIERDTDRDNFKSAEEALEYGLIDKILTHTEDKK
#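 ClpP 10 microg/mL final, pH 8 Tris/KCl buffer with BSA, glycerol, Tween-20; compound pinned in; FRET-FV substrate; RT 20 min; Ex320/Em430; ΔFRET vs ADEP 5.8 microM, DMSO, no enzyme.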
# PINK1 modulator = PINK1 expression modulation; PINK1 immunofluorescence, high-content cytometry, 24 h; Potency, µM (top dose mostly 76.6 µM), inactives show at the top dose activation (PINK1 increase), hits mostly activators; 410,000 compounds, 0.2% hits; active = well fitted activation curve with a large enough effect; inconclusive = small, poorly fitted or top-dose-only effect; inactive = flat fitted curve, though single readings scatter; cell line not stated here;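 also: potency is read from the fitted curve at half-maximal effect; % of control where 0% means no effect; nearly all actives have a fitted effect of over 65% in size; a mitochondrial uncoupler was the plate control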
#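 Fluorescence from anti-PINK1 antibody, together with nuclear and cell stains, was scanned on a laser-scanning cytometer. Before staining, stable-line cells were incubated 24 hours with compounds at 5 concentrations; primary antibody 12 h at 10 degrees C.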
# gsp antag = antagonizes gsp, the McCune-Albright syndrome mutation | AID 624288 | Potency, µM (top dose mostly 76.9 µM), for inactives: at the top dose activity change, negative = inhibition, actives largely listed as inhibitors | 340,000 compounds, 0.4% hits | gsp-mutant cells, cAMP HTRF, 30 min; control for the full effect not named in the record; active = falling curve of any shape with a large fitted effect; inconclusive = falling curve, mostly with a smaller effect; inactive = flat or rising curve; cell line not stated here;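 also: intracellular cAMP measured with PDE inhibitor Ro 20-1724 present during compound exposure; potency is read from the fitted curve at half-maximal effect; % is scaled to controls: 0 for no effect and ±100 for the full control effect; nearly all actives have a fitted effect of over 65% in size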
#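 HTRF cAMP measurement after 30 min RT detection following 30 min, 37C compound treatment alongside […] (added as 300 uM solution) in G418-selected cells seeded at 2000/well and grown 16–24 h.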
# Menin-MLL FL inh = menin-MLL binding inhibition, fluorescein peptide; Fluorescence polarization, fluorescein-MLL peptide displacement from menin; FP activity change, % at 61.4 µM; 290,000 tested, under 10 active; AID 1766; inconclusive = falling polarisation curve, or a change in total fluorescence; inactive = total fluorescence flat and polarisation flat or rising; no compound was filed as active; the % refers to the polarisation; negative = inhibition;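 also: % of control where 0% means no effect; inhibitors lower the polarisation; unlabelled MLL peptide was the positive control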
# Sfp inh = inhibitors of Bacillus subtilis Sfp phosphopantetheinyl transferase; 310,000 compounds, 3.5% hits; Biochemical Sfp PPTase activity, qHTS; Q9F4F7; Potency, µM, for inactives: max response, negative = inhibition, usual class: inhibitors; active = well fitted inhibition curve with a large enough effect; inconclusive = small, poorly fitted or top-dose-only effect, or another doubt; inactive = no such curve, though single readings can be large or run the other way;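 also: the enzyme is Sfp with the accession as filed and its product quenches rhodamine fluorescence; potency is read from the fitted curve at half-maximal effect; 0% = enzyme reaction without inhibitor and -100% = no enzyme wells; top concentration of the series not given in the record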
#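 Buffer: 50 mM Hepes-Na pH 7.6, 10 mM MgCl2, 0.01% Nonidet P-40, 0.01% BSA. Enzyme 15 nM, pre-exposed to compound 15 min; substrates then added and fluorescence change tracked over 30 min.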
# Starred values were filed as active, the others as inactive; ? = inconclusive; / = not tested or not shown; [ ] = dose if it differs, or a comment. Hits appear at their usual frequency; 5.1% or so of the library scored in one or more.
SMILES,gsp agonist,D2 agonist,ClpP mod,PINK1 modulator,gsp antag,Menin-MLL FL inh,Sfp inh
Cc1cc(NC(=O)CSc2nc3ccsc3c(=O)n2NC(=O)c2ccccc2)no1,13%,-0.3,-3.9%,-3.8%[38.3 µM],2%,-0.5,15%
CCc1ccc(C(=O)COC(=O)c2ccc(Cl)nc2)cc1,-62%[inhibitor],1.0,/,-0.3%,-2%,-0.1,8%
CCOC(=O)C1(C)C=C(Nc2ccc(C)cc2)C(=O)N1c1ccc(C)cc1 (configuration not stated),-5%[15.4 µM],-2.9,/,7.9%,/,0.4,12%
CC1CCCCN1S(=O)(=O)c1ccc2c(c1)CCN2C(=O)C1CCC1 (configuration not stated),0%,-1.6,-0.3%,0.0%,-31%,-1.4,3%
COC(=O)C1C(O)=C(C=NC2CCCCC2)C(=O)CC1(C)C (configuration not stated),-15%,-1.7,-22%,-1.1%,2%,0.3,16%
Cc1ccc(-c2ccc(C)c(N)c2C)c(C)c1N,-20%,5.1,-4.2%,1.6%,1%,-1.2,-2%
CCN=C1NN=C(c2cc(C)n(CCc3ccccc3)c2C)CS1,5%[15.4 µM],-3.2,/,?,-5%,4.2,50µM*
CCCCCC(CC(=O)NO)C(=O)NC(C(=O)N1CCCC1CO)C(C)C (configuration not stated),/,-5.3,-1.8%,3.9%,25%,/,/
COC(C[C@H](O)C[C@H](O)[C@H](C)OCc1ccccc1)OC,/,-3.5,-2.9%,-0.4%,-6%,-1.6,6%
CCN(CC)C(=O)c1ccc(-c2nnc(Nc3cccc(O)c3)c3ccccc23)cc1,-37%,6.6,1.2%,-0.3%,?,6.1,-5%
COCCN1C(=O)N[C@@H](c2cccc(C(F)(F)F)c2)[C@H](C(C)=O)[C@H]1C,-13%,-0.8,0.6%,3.8%,7%,2.0[11.7 µM],2%
CCN(CC)C(=O)C1CCN(Cc2ccc(OCc3ccccc3)cc2)CC1,?,2.3,-0.2%,0.4%,8%,3.4,-7%
Cc1ccc(-c2nc(C=Nc3ccccc3)c(O)o2)cc1,0%,-6.9,-3.0%,-0.5%,-19%,11,0%
Cc1c(C(=O)OCC(=O)N2CC(C)CC(C)C2)oc2ccccc12 (configuration not stated),-3%[15.4 µM],4.5,/,0.4%,3%,/,/
CCOC(=O)Cc1csc(NC(=O)/C=C/c2ccco2)n1,-36%[inhibitor],0.1,-1.9%,-1.1%,-4%,?,71µM*
C/C(=N\NC(=O)Cc1cccn1C)c1ccco1,24%,-0.8,/,-0.8%,9%,1.7,-19%
CN(C(=O)CC1C(=O)NCCN1Cc1ccccc1F)C1CCOCC1 (configuration not stated),-1%,1.0,-30%,-0.7%,6%,-2.4,-9%
COc1ccc(OC)c(NC(=O)COC(=O)[C@H](Cc2ccccc2)NC(=O)c2ccco2)c1,-23%,0.5,1.9%,0.9%,?,/,/
O=C(/C=C/c1ccc(F)cc1)Nc1ccc(S(=O)(=O)N2CCOCC2)cc1,?,-7.8,-5.3%,3.6%,-11%,-8.6,8%
Cc1ccc(SC(C)c2nc(-c3ccncc3)no2)cc1 (configuration not stated),0%,-1.4,0.4%,1.0%,?,2.1,3%
NC(=O)c1nsc(C(=O)N(c2cccc(O)c2)C(C(=O)NC2CCCC2)c2ccc(Cl)cc2)c1N (configuration not stated),-1%[15.4 µM],-1.2,-4.1%,3.2%,-8%,-3.1,21%
COc1ccccc1-c1cncnc1NCc1cccc(C)c1,/,/,/,0.2%,/,0.0,-4%
O=C(NCCCN1CCOCC1)c1ccc(Cl)c([N+](=O)[O-])c1,-5%[15.4 µM],-1.8,/,1.8%,-1%,/,/
CCN1CCN(S(=O)(=O)c2ccc(Cl)c(C(=O)N(C)Cc3ccco3)c2)CC1,0%,-2.8,1.3%,2.6%,7%,/,/

# Some of these compounds in order of their number in PINK1 modulator, low to high:
Structure | PINK1 modulator
COc1ccc(OC)c(NC(=O)COC(=O)[C@H](Cc2ccccc2)NC(=O)c2ccco2)c1 | 0.9%
O=C(NCCCN1CCOCC1)c1ccc(Cl)c([N+](=O)[O-])c1 | 1.8%
NC(=O)c1nsc(C(=O)N(c2cccc(O)c2)C(C(=O)NC2CCCC2)c2ccc(Cl)cc2)c1N (configuration not stated) | 3.2%

# Next part:
SMILES,gsp agonist,D2 agonist,ClpP mod,PINK1 modulator,gsp antag,Menin-MLL FL inh,Sfp inh
O=C(NCC(=O)N1CCOCC1)c1ccc(Br)o1,?,4.7,2.6%,-0.6%,3%,/,/
Nc1ccc(N2CCN(CCCCN3C(=O)C4CCCN4C3=O)CC2)cc1 (configuration not stated),-38%[inhibitor],6.1,-6.2%,0.2%,-15%,-2.4,-8%
CCOc1ccc(NC(=O)CN(C)C(=O)c2cc(S(=O)(=O)N(C)C)ccc2N2CCCC2)cc1OCC,14%,1.1,-3.5%,0.4%,-4%,/,/
CCCCCN(C(=O)CCC(=O)OCC(=O)c1ccc(F)c(F)c1)c1c(N)n(CCCC)c(=O)[nH]c1=O,?,-7.3,4.0%,3.8%,9%,/,/
COc1ccc(CNCC(O)(c2ccccc2)c2ccc(F)cc2)cc1 (configuration not stated),-2%,-0.8,/,?,-3%,-1.1,-2%
Cc1cccc(CSc2nnc(C)c(=O)n2N)c1,-7%,-4.4,-1.0%,-0.9%,4%,-1.2,12%
Cc1nn(CC(=O)Nc2cccc(C(F)(F)F)c2)c(=O)c2cccn12,-2%,-5.4,0.6%,-0.5%,10%,/,18%
O=C(O)C1CCCCC1C(=O)Nc1ccc2c(c1)OCO2 (configuration not stated),-8%[15.4 µM],-0.6,/,-0.2%,4%,0.9,9%
CCOC(=O)c1sc(Nc2nc(C)cc(C)n2)nc1C,13%,-3.9,-2.6%,3.0%,2%,-0.2,?
N/C(=N\OC(=O)c1ccc(Cl)cc1)c1ccn[nH]1,0%,13,0.6%,-0.7%,-3%,/,11%
COc1ccc(NC(=O)CCS(=O)(=O)c2ccccc2Cl)cc1S(=O)(=O)Nc1ccc(Cl)cc1,-23%,-3.6,-0.5%,3.5%,-15%,0.5,13%
CC(=O)c1ccc(N2CCN(CC(O)c3ccccc3)CC2)cc1 (configuration not stated),-1%[15.4 µM],-2.5,/,0.1%,11%,2.3,17%
COc1cccc(NC(=O)CN(C)C(=O)c2cc3c(s2)CCCCC3)c1,-34%,-3.9,-0.1%,1.1%,?,/,/
O=C(Cn1c(=O)oc2cc(S(=O)(=O)N3CCCCCC3)ccc21)NC1CCCCCCC1,22%,2.1,-0.1%,2.2%,-4%,0.8,0%
CC(C)CN(C(=O)c1cccc(Cl)c1)c1c(N)n(Cc2ccccc2)c(=O)[nH]c1=O,5%,7.6,0.5%,13%,1%,/,/
CC1CCC(NC(=O)Cn2c(=O)oc3ccccc32)CC1 (configuration not stated),20%,0.7,-3.5%,1.4%,4%,/,1%
C/C(=N\NC(=O)CNc1cccc(Cl)c1C)C1CC1,-28%,1.2,0.7%,0.3%,2%,-0.2,16%
O=C(N/N=C/c1ccc(Br)o1)c1cccnc1,0%,-1.3,-1.9%,4.8%,12%,-1.6,7%
OCCC1CN(Cc2cccc3c2OCO3)CCN1Cc1ccccc1 (configuration not stated),-15%[15.4 µM],-8.1,/,2.7%,7%,0.6,1%
CN(C)CCCN(C(=O)c1cc(-c2cccs2)nc2ccccc12)c1nc2ccc(F)cc2s1,-29%,-7.5,-16%,-0.2%,16%,/,50µM*
O=C1CSC(c2ccccn2)N1Cc1cn2ccccc2n1 (configuration not stated),-2%,0.0,-8.1%,0.2%,8%,-1.8,3%
CS(=O)(=O)c1ccc2nc(NC(=O)c3ccc(N4CCCC4=O)cc3)sc2c1,6%[15.4 µM],-2.6,/,-0.1%,-8%,-1.1,12%
CCOc1ccc(NC(=O)CN(Cc2ccccc2)S(C)(=O)=O)cc1,-8%,-2.1,0.6%,-0.5%,-8%,3.5,18%
Cc1ccc(-c2[nH]c(=S)[nH]c(=O)c2C#N)cc1,3%,-5.4,-1.9%,-0.7%,8%,-5.1,20%
Cc1ccc(CNC(=S)N2CCOCC2)cc1,?,-3.4,-1.2%,0.6%,4%,0.5,5%
O=C(NCCc1ccccc1)C1CCN(S(=O)(=O)N2CCC3(CC2)OCCO3)CC1,22%,-0.9,0.0%,-1.8%[38.3 µM],-11%,-1.9,26%
COCC(=O)Nc1ccccc1C#N,-3%,-2.5,0.0%,-5.1%,6%,4.8,6%
CC1=Nc2ccccc2N=C(NC(=O)c2ccccc2)C1c1ccc(Cl)cc1 (configuration not stated),-7%[15.4 µM],-0.1,/,-0.8%,?,3.5,4%
COc1ccccc1Sc1nc(-c2ccccn2)ncc1OC,-1%,-4.3,/,-1.2%,-4%,-2.2,-3%
O=C(Nc1ccc(F)c(F)c1)c1cc(S(=O)(=O)N2CCN(c3ccccn3)CC2)ccc1F,-1%,2.7,-20%,1.7%[38.3 µM],-4%,-1.1,20%
CCN(CC)C(=O)CSc1nnc([C@@H](N)Cc2ccccc2)o1,9%,-3.3,-4.0%,1.0%,5%,-3.7,8%
CN1CCN(C2Cc3ccccc3Sc3cc(C(F)(F)F)ccc32)CC1 (configuration not stated),?,2.3,/,-3.4%,7%,/,/
O=C(COC(=O)CCNS(=O)(=O)c1cccs1)Nc1cc(C(F)(F)F)ccc1Cl,6%,2.6,-1.6%,2.2%,-4%,/,/
CCCCCCCCCCCC(=O)c1c(O)cccc1O,?,-4.5,-0.2%,?,-16%,5.2,15%
COc1ccc2cc(-c3[nH]ncc3CNCCn3nc(C)cc3C)ccc2c1,-3%,-0.4,-9.5%,-0.7%,-7%,0.1,12%
NNC(=O)CN1CCN(c2ncc(C(F)(F)F)cc2Cl)CC1,-6%[15.4 µM],-1.0,/,0.5%,12%,3.2,19%
Cc1ccccc1-n1cc(CNCc2c(C(=O)N(C)C)nc3ccc(Cl)cn23)cn1,?,-4.8,-9.9%,3.8%,-11%,-5.0,5%
CC1(C(=O)Nc2ccc(Cl)c(C(F)(F)F)c2)Cc2c(-c3ccc(C(N)=O)cc3)ccnc2O1 (configuration not stated),/,14,-7.6%,1.7%,/,/,/
O=C(NCc1cccnc1)C(=O)NC1CCCCC1,0%,-0.5,0.4%,0.1%,-5%,-1.9,7%

# Screening data as filed in PubChem.
